Screens (PubChem)
HPGD inh: HPGD (human) dehydrogenase inhibition; P15428; purified HPGD, NADH fluorescence kinetic, PGE2 substrate; Potency, µM, for the others: top-dose activity change, negative = inhibition, actives largely listed as inhibitors; 150,000 tested, 4.3% active; active = well fitted inhibition curve with a large enough effect (not every such curve was filed as active); inconclusive = small, poorly fitted or top-dose-only effect, or another doubt; inactive = no such curve, though single readings can be large or run the other way;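 further: top concentration of the series not given in the record; plate controls included wells without enzyme; inactives centre near -10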
Target sequence (P15428 whole entry, looked up): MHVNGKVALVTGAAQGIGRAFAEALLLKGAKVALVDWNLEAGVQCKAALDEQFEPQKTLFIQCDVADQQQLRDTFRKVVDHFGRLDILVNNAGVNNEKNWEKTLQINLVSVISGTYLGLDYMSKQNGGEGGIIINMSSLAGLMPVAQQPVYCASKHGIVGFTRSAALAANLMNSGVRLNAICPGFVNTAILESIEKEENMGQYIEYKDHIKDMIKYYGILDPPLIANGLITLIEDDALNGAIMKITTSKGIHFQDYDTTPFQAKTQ
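NADH formation kinetics: reaction with 30 uM PGE2 and 1 mM NAD+ (final), 20 nM enzyme, Tris-HCl pH 8 with Tween 20, after 15 min compound preincubation at room temperature. Fluorescence change, last versus first of five reads.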
The depositor's hits bear a star; ? = inconclusive; & = joins results of further samples; [ ] = another dose, or the depositor's remark. On the % scale 0 is the no-effect control and ±100 the full control effect; potency means the concentration at half of the fitted maximal effect. Only part of the results is shown; count on the stated rates, not on these rows.

SMILES	HPGD inh
Cc1cccc(-c2nc(NCCCN3CCOCC3)c3ccccc3n2)c1	-7.1%
Cc1ccc(Cn2ccc(=O)c(OCc3ccccc3)c2C)cc1	-2.5%
CSc1ccc(/C=C(\NC(=O)c2ccc(C)cc2)C(=O)Nc2cccc(C)c2)cc1	-25.8%
Cc1cc(C)n(-c2ncnc3sc4c(c23)CCCC4)n1	?
N#Cc1c(N2CCCC2)nc(N)c2c(N)nc(N3CCCC3)cc12	?
COc1ccc(S(=O)(=O)N(CC(=O)N2CCOCC2)Cc2ccccc2)cc1	-16.2%
CCC(C)(C)n1nnnc1C(c1ccc2ncccc2c1)N1CCN(c2nc3ccccc3s2)CC1 (centres undefined)	-17.2%
CCN(CC)S(=O)(=O)c1ccc(N/N=C/c2cc(OC)ccc2O)nc1	-4.5%
Cc1cc2ccccn2c1C(=O)c1ccc(Cl)cc1	-25.9%
CCc1nnc(NC(=O)c2cccc(C(=O)Nc3nnc(CC)s3)n2)s1	-8.5%
O=C(Nc1ccc(Cl)c(C(F)(F)F)c1)C1CCCN(S(=O)(=O)c2cnc[nH]2)C1 (centres undefined)	6.1%
Cc1ccc(C(=O)Nc2ccccc2-c2ccccc2)o1	-10.8%
NC(=O)c1c(NC(=O)CCCC(=O)O)sc2c1CCCCCC2	28.2µM*
Cc1ccc(C(=O)O/N=C(\c2ccccc2)c2cccnc2)cc1	-7.7%
O=P(O)(CCc1ccncc1)CN1CCCCC1	-8.4%
CCN1CCN(CC(=O)c2c[nH]c3ccc(C)cc23)CC1	2.4%
COCCNC(=O)C(C)OC(=O)c1nsc(Cl)c1Cl (centres undefined)	-1.9%
CC(=O)Nc1cc(-c2nn(C)c(=O)c3ccccc23)ccc1N1CCOCC1	-15.2%
COC(=O)c1c(N)sc2c1CCN(c1ncc(C(F)(F)F)cc1Cl)C2	-21.2%
Cn1c(=O)c(=O)n(C)c2cc(S(=O)(=O)Nc3ccc4c(c3)OCCO4)ccc21	25.1µM*

Random excerpt: five records from the list
SMILES	HPGD inh
O=C(Nc1ccc(Cl)c(C(F)(F)F)c1)C1CCCN(S(=O)(=O)c2cnc[nH]2)C1 (centres undefined)	6.1%
CSc1ccc(/C=C(\NC(=O)c2ccc(C)cc2)C(=O)Nc2cccc(C)c2)cc1	-25.8%
CCC(C)(C)n1nnnc1C(c1ccc2ncccc2c1)N1CCN(c2nc3ccccc3s2)CC1 (centres undefined)	-17.2%
N#Cc1c(N2CCCC2)nc(N)c2c(N)nc(N3CCCC3)cc12	?
Cc1cc2ccccn2c1C(=O)c1ccc(Cl)cc1	-25.9%

Continuation:
SMILES	HPGD inh
COC(=O)c1ccc(COc2ccccc2/C=N/NS(=O)(=O)c2ccc(C)cc2)cc1	-14.7%
COC(=O)c1sccc1NC(=O)c1ccco1	-13.5%
CC(Oc1ccc(Cl)cc1)C(=O)/C=C/N(C)C (centres undefined)	-17.6%
OC1(c2ccc(Cl)cc2)CCN(Cc2c[nH]c3ccccc23)CC1	-6.9%&-10.3%
c1ccc(SCCc2ccncc2)cc1	-7.4%&-10.5%
O=C(CSCc1cccc(Br)c1)NC1CC1	-21.4%
CCOC(=O)C1CCN(C/C=C/c2ccccc2OC)CC1	-13.3%
O=C(CSc1nc2c(c(C(F)(F)F)n1)CCc1ccccc1-2)NCc1ccccc1	?
Cc1sc2nc(C(C)C)oc(=O)c2c1C	3.0%
O=C(NCCN1C(=O)S/C(=C\c2ccc(Cl)c(Cl)c2)C1=O)c1ccc2c(c1)C(=O)N(Cc1ccncc1)C2=O	-18.1%
Cc1cccc(-c2nc(=S)c3c(n2Cc2ccco2)CCCC3)c1	-15.5%
CCC(C#CCN1CCOCC1)(CC)OCCC#N	-4.6%
CC(=O)N[C@@H](CC(=O)O)C(=O)N[C@@H](CCC(=O)O)C(=O)O	-4.6%&-0.9%
COc1ccc(-c2csc(N3CCC(C(N)=O)(N4CCCCC4)CC3)n2)cc1	-9.0%
CCOC(=O)C1CCN(C(=O)COc2ccc(N(C)S(=O)(=O)c3cccs3)cc2)CC1	-12.2%
O=C(CSc1nnc(Nc2ccccc2F)s1)Nc1cccc(S(=O)(=O)N2CCCCC2)c1	-10.0%
CC(C)Cn1c(N)c(C(=O)COC(=O)C2=COCCO2)c(=O)n(C)c1=O	-14.7%
Cc1nn(C)c(C)c1S(=O)(=O)N(CC(=O)Nc1ccc2c(c1)OCO2)c1ccc(C(C)C)cc1	-12.0%
CCN(CC)C(=O)C(Cc1ccccc1)N1C(=O)c2ccccc2C1=O (centres undefined)	-3.4%
c1cc(-c2noc(CCC3CCCC3)n2)ccn1	-11.6%
CC(=O)Nc1ccc(S(=O)(=O)NCC(=O)OCc2ccccc2)cc1	-5.1%
Clc1ccc(Cn2c(CN3CCCC3)nc3ccccc32)cc1	-16.7%&-9.6%&2.2%
O=c1nc2ccccc2c(NS(=O)(=O)c2ccc(Cl)cc2)n1-c1ccccc1	-9.0%
Cc1cc(=O)oc(C)c1C(=O)Nc1c(C)n(C)n(-c2ccccc2)c1=O	3.6%
COc1ccc(C(=O)Nc2cccc(C(C)=O)c2)cc1S(=O)(=O)N1CCOCC1	-0.9%
CCn1c(SCC(=O)Nc2ccc3c(c2)OCO3)nc2c(c1=O)SC(C)C2 (centres undefined)	-6.4%
COc1ccc(Cl)cc1N1C(=O)C2CCCN2C1c1sccc1C (centres undefined)	-12.6%
COc1cccc(C(C(=O)NC2CCCC2)N(Cc2ccc(C)cc2)C(=O)c2ccco2)c1OC (centres undefined)	-4.6%
CCc1c(C)n([O-])c2c([n+]1=O)CCC2	-0.3%
O=C(N1CCOCC1)N1CCN(c2ccccn2)CC1	?
c1ccc(Nc2nc(N3CCCCC3)nc(N3CCCCC3)n2)cc1	-7.4%
CCCCn1ccnc1C(=O)c1ccc(S(=O)(=O)N(CCOC)CCOC)cc1	-8.7%
Cc1ccc(S(=O)(=O)N2CCC(C(=O)N[C@@H](C)C(=O)NCc3ccccc3)CC2)cc1	-11.7%
Cc1noc(C)c1CSc1nc2ccccc2c(=O)n1-c1ccc(Cl)cc1	-6.0%
CC(C)NC(=O)N1CC[C@@]2(CCCN(C(=O)c3cccn3C)C2)C1	-1.2%
O=C(Nc1cccc(S(=O)(=O)NC2=NCCCCC2)c1)c1cc(-c2ccc(Cl)cc2)nc2ccccc12	-14.9%
COc1ccc(C(O)C(CN2CCOCC2)c2ccccc2)cc1F (centres undefined)	-9.0%
COc1ccc(OC)c(NC(=O)C2CCN(c3ncccn3)CC2)c1	-24.3%
Cc1nn(-c2ccc(F)cc2)c(Cl)c1/C=N/NC(=O)c1cccc(S(=O)(=O)N2CCCC2)c1	1.0%
CCC(c1nnnn1Cc1ccco1)N(CCN1CCOCC1)Cc1cc2cc(C)ccc2[nH]c1=O (centres undefined)	-19.6%
O=C(N/N=C/c1ccsc1)c1cc(-c2cccs2)nc2ccccc12	?
CCOc1ccc(NC2=C(OC)C(=O)c3ccccc3C2=O)cc1	20µM*
C=CCOC(=O)c1ccccc1C(=O)OCC=C	-2.8%
CC1CCN(S(=O)(=O)c2ccc(C(=O)OCc3ccc4c(c3)OCO4)cc2)CC1	-3.5%
CCC(=O)Nc1cccc(NC(=O)c2ccc(Br)cc2)c1	-0.1%
COc1ccc(CSCC(=O)Nc2ccc(S(=O)(=O)N3CCCCCC3)cc2)cc1	-13.2%
CCN1CCN(c2ncnc3c2sc2nc(N4CCOCC4)c4c(c23)CCC4)CC1	-21.8%
O=C(NCCC1=CCCCC1)C1CCCN(S(=O)(=O)c2ccc(F)cc2)C1 (centres undefined)	-2.6%
O=C(NCc1ccc(F)cc1)C(=O)Nc1nc(C23CC4CC(CC(C4)C2)C3)cs1	-24.6%
CC(C)NC(=O)c1ccc(CS(=O)(=O)c2ccc(Br)cc2)o1	2.0%
O=C1CC(c2cccc(Cl)c2)c2cc3c(cc2N1)CCC3 (centres undefined)	-9.9%
COC(=O)[C@@]1(Cc2ccccc2)[C@H]2c3cc(C(=O)N(C)C)n(C[C@H](O)CO)c3C[C@H]2CN1C(=O)c1ccccc1	-7.3%
COc1ccc(C(=O)Nc2ncc3c(n2)-c2ccccc2CC3)cc1	-20.4%
C=CC1=C2C=C(C3CC3)N(C(CO)CO)C=C2C(=O)C(C)(OC(=O)c2ccco2)C1=O (centres undefined)	-2.6%
Cc1ccc(/C=N/n2c(C)cc(C)c(C#N)c2=O)cc1	-9.0%
CCOC(=O)Cc1csc(SCC(=O)Nc2cccc(C#N)c2)n1	-15.5%
CC(C)Oc1ccc(-c2cc(=O)[nH]c(=O)[nH]2)cc1	-4.6%
COC(=O)c1cc(-c2ccccc2)sc1N	28.2µM*
O=C(CCc1ccccc1)NNC(=O)C1CCCCC1	-3.0%
O=c1ccnc(Sc2ncccc2[N+](=O)[O-])[nH]1	-2.8%

Next section; the last 4 above are carried over.
SMILES	HPGD inh
CC(C)Oc1ccc(-c2cc(=O)[nH]c(=O)[nH]2)cc1	-4.6%
COC(=O)c1cc(-c2ccccc2)sc1N	28.2µM*
O=C(CCc1ccccc1)NNC(=O)C1CCCCC1	-3.0%
O=c1ccnc(Sc2ncccc2[N+](=O)[O-])[nH]1	-2.8%
C=CCn1c(COC)nnc1SCC(=O)c1ccc(F)cc1	-23.2%
Cc1ccc(C(c2nnnn2CCc2ccccc2)N2CCSCC2)cc1 (centres undefined)	-7.7%
Cc1nn(-c2nnc(NC3CCCCC3)nn2)c(C)c1Br	15.8µM*
Cc1ccc(Oc2ncccc2/C=N/OCc2ccc(Cl)cc2Cl)cc1	-0.4%
CCNC(=S)Nc1nc2c(cc1C(=O)OCC)CCCC2	-15.2%
COc1ccc(C(=O)Nc2cnn(Cc3ccc(Cl)cc3)c2)cc1OC	-4.9%
CCOc1ccc(NC(=O)c2cccnc2C(=O)O)cc1	-6.3%
COc1ccc(C(=O)Oc2ccc3c(C)cc(=O)oc3c2C(C)=O)cc1	-10.9%
O=C1CN(c2nc(-c3ccccc3)c3ccccc3n2)c2ccccc2N1	-6.1%
COCCN(C(=O)C1CC1)c1nnc(-c2cccc(C)c2)s1	-14.0%
COc1ccccc1OCC(=O)NCc1cccs1	-25.8%
CC(=O)n1nc2nc(C)cc(C)c2c1N	2.7%
CC(C)C(NC(=O)C1CCCCC1)C(=O)NC1=NCCS1 (centres undefined)	4.4%
Cc1cccc(C2Nc3ccccc3C(=O)N2NC(=O)c2ccc([N+](=O)[O-])cc2)n1 (centres undefined)	-6.6%
Cc1cc(=O)n2nc(N3CCC(C(=O)NC(C)c4ccccc4)CC3)sc2n1 (centres undefined)	-22.1%
COc1cccc(/C=N/n2c(N)nc3ccccc32)c1OC	?
O=C(CN1C(=O)COc2ccccc21)N(Cc1cccnc1)Cc1ccccc1F	-6.5%
CC1CCCC(NC2CCCCNC2=O)C1 (centres undefined)	-5.2%
CN(C)Cc1cc(CCNC(=O)c2ccc(Cl)cc2)ccc1O	-11.0%
O=C(Nc1nc2ccccc2[nH]1)c1cccc(S(=O)(=O)N2CCOCC2)c1	-10.9%
O=c1c2ccccc2[nH]c2ccccc12	?
CCCCOC(=O)CCN1C(=O)/C(=C2\SC(=S)N(CCC(=O)OCCCC)C2=O)SC1=S	-10.1%
CC(C)NCC(O)COc1ccc(COCCOC(C)C)cc1 (centres undefined)	-10.9%
CCS(=O)(=O)c1ccc2c(c1)N(S(C)(=O)=O)CC(C(=O)NCc1ccccc1OC)O2 (centres undefined)	-7.6%
Cc1cc(SCCOc2ccccc2)nc(N)n1	-23.6%
COc1ccc([N+](=O)[O-])cc1C(=O)Nc1ccc(OCC(=O)N2CCOCC2)cc1	-15.4%
CCC(C)[C@@H](C(=O)NCC1CCC(C(=O)O)CC1)n1nnc2ccccc2c1=O (some centres undefined)	1.2%
COC(=O)c1ccc(C(NC(=O)OCc2ccccc2)/C(C)=C/[C@@H](C)C(=O)NCc2cc(F)cc(F)c2)cc1 (some centres undefined)	-12.5%
O=C1c2ccccc2C(=O)N1CCCn1c(=O)oc2ccccc21	-10.9%
Clc1ccc(C[n+]2cc(-c3ccccc3)n3c2CCC3)cc1Cl	-7.8%
C=CCn1c(=NC(=O)c2ccco2)sc2cc(C(=O)OC)ccc21	194.2%[activator]
O=C(O)CCC(=O)c1ccc[nH]1	0.7%
COc1cc(C2=NOC(C(=O)NCc3ccc(F)cc3)C2)cc(OC)c1OC (centres undefined)	-22.7%
Cc1nc(N2CCC3(CC2)OCCO3)c2nnn(Cc3ccccc3F)c2n1	-24.6%
CC(C)CCC(C)N=Cc1c(O)n(Cc2ccccc2)c(=O)c2ccccc12 (centres undefined)	-18.4%
CCOC(=O)CSc1n[nH]c(NC(=O)c2ccccc2)n1	-20.0%
O=[N+]([O-])c1ccc(N=Cc2ccc(Br)c([N+](=O)[O-])c2)cc1	-16.9%
CSc1ccc(-c2nc(CSCC(=O)NCCCN3CCOCC3)c(C)o2)cc1	-20.6%
CS(=O)(=O)c1ccc(C(=O)NCC2(N3CCCCC3)CCCCC2)cc1	-13.0%
CCOC(=O)N1CCN(CC(O)COc2c(C)cccc2C)CC1 (centres undefined)	-8.5%
Cc1cc(N2C(=O)C3CC=CC(C)C3C2=O)no1 (centres undefined)	-10.9%
COC(=O)NC(=S)Nc1ccc(Oc2ccc(Cl)cc2Cl)c(Cl)c1	-29.6%
CC1(N2CCOCC2)CC2(O)C(=[N+]1[O-])CCc1c2no[n+]1[O-] (centres undefined)	-20.0%

Sorted by molecular weight (ascending): 5 of the compounds above.
SMILES	HPGD inh
O=C(O)CCC(=O)c1ccc[nH]1	0.7%
O=C1c2ccccc2C(=O)N1CCCn1c(=O)oc2ccccc21	-10.9%
CC(C)NCC(O)COc1ccc(COCCOC(C)C)cc1 (centres undefined)	-10.9%
CCS(=O)(=O)c1ccc2c(c1)N(S(C)(=O)=O)CC(C(=O)NCc1ccccc1OC)O2 (centres undefined)	-7.6%
CCCCOC(=O)CCN1C(=O)/C(=C2\SC(=S)N(CCC(=O)OCCCC)C2=O)SC1=S	-10.1%
